Compound activity deposited in PubChem by several laboratories.
eIF4H FP inh: inhibitors of RNA binding by human eIF4H. Q15056. eIF4H fluorescence polarization binding assay. inhibition, % at 35 µM. 290,000 compounds, 0.94% hits. AID 2012;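 active means 50% or more with normal probe brightness, or confirmed in later tests; inconclusive means above 50% with abnormal brightness, or retests that disagree; inactive means below 50% or failed in later tests; about a fifth of its hits are not listed in these tables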;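 further: calls also rest on retests at 20 µM and on dose response follow-up; 0% = protein and probe with vehicle and 100% = probe without protein; strong numbers were not always called active; many hits fall short of the cut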
MT1-MMP act inh: inhibitors of human MT1-MMP activation; AID 651647; HT1080 RFP-PRO-GFP cells, GFP/RFP ratio fluorescence, overnight; percent of plate control window, DMSO zero; GFP/RFP ratio change, % at 20 µM; 360,000 compounds, 0.061% hits;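 active means GFP/RFP ratio change of at least 30% with cell ATP level not reduced by more than half and red fluorescence within 50% of control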; further: strong numbers were not always called active
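Material – HT1080 RFP-PRO-GFP cells · Control set – DMSO wells and RFP-L50D-GFP cells · Incubation – overnight cell settling, then overnight compound exposure, 37 °C, 5% CO2 · Compound dosing – single-point 20 µM compound, 1% DMSO · Read-out – GFP/RFP fluorescence ratio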
Env fusion inh: inhibitors of HIV Env-mediated cell fusion; 360,000 compounds, 1.1% hits; HeLa-JRFL Env/CEM21 cell fusion, luciferase; inhibition, % at 12.3 µM;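 active means mean replicate inhibition score of at least 50 and every replicate individually at or above 50; inconclusive means only one of the two criteria met; inactive means mean below 50 and not all replicates reaching 50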;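 further: 0% = plate neutral controls and 100% = maraviroc near 300 nM; one replicate is shown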
UUG fidelity: yeast start codon fidelity modulation; S. cerevisiae UUG-firefly luciferase reporter, luminescence/redox ratio; activity score, % at 18.7 µM; 350,000 compounds, 0.13% hits; AID 602363;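 active means replicate mean at a twofold rise or more, about +100% in these data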;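 further: firefly luciferase made from a UUG start codon reports start codon fidelity; reporter light over untreated wells divided by growth signal over untreated wells; some hits fall short of that in this replicate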
CSC inhib: blocks cancer stem cells; cancer stem cell-like cells viability, luminescence; 300,000 compounds, 1.1% hits; inhibition, % at 7.5 µM; AID 2717;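 active means mean at 75% or more and at least half the replicates too; inconclusive means mean and replicates disagree; tested in HMLE shEcad cells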;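 further: 0% = median of negative and 100% = median of positive control wells; the first replicate is given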
Rce1 inh: yeast Ras-converting enzyme inhibition; 290,000 compounds, 0.27% hits; Q03530; AID 2563; calls only; yeast membranes, quenched prenylated peptide cleavage fluorescence;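 active means fall in fluorescence gain of 50% or more versus controls, with final raw signal at or below 3038400; inconclusive means same 50% fall but final raw signal above 3038400; inactive means fall in fluorescence gain under 50%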;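 further: plate controls were neutral control wells for no effect and wells lacking membranes for full effect; tested at 10 µM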
Target sequence (Q03530 whole entry, looked up): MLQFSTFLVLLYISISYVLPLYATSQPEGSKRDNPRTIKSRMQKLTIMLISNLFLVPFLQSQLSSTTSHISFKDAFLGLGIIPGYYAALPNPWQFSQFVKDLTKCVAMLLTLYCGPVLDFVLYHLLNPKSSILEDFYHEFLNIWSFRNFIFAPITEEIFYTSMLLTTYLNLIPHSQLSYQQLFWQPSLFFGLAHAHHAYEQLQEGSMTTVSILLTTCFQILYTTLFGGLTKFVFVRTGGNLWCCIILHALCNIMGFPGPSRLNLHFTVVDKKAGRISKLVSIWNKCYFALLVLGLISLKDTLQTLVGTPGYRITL
PABP FP inh: PABP-poly(A) binding inhibition; PABP-poly(A) RNA binding, fluorescence polarization; inhibition, % at 35 µM; 290,000 compounds, 1% hits; AID 2014;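 active means 50% or more with normal probe brightness, or confirmed in later tests; inconclusive means above 50% with abnormal brightness, or retests that disagree; inactive means below 50% or failed in later tests; about a fifth of its hits are not listed in these tables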;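 further: calls also rest on retests at 20 µM and on dose response follow-up; controls were probe without protein and protein plus probe with vehicle; some compounds called inactive have numbers as strong as hits; many hits fall short of the cut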
Target sequence (P11940 whole entry, looked up): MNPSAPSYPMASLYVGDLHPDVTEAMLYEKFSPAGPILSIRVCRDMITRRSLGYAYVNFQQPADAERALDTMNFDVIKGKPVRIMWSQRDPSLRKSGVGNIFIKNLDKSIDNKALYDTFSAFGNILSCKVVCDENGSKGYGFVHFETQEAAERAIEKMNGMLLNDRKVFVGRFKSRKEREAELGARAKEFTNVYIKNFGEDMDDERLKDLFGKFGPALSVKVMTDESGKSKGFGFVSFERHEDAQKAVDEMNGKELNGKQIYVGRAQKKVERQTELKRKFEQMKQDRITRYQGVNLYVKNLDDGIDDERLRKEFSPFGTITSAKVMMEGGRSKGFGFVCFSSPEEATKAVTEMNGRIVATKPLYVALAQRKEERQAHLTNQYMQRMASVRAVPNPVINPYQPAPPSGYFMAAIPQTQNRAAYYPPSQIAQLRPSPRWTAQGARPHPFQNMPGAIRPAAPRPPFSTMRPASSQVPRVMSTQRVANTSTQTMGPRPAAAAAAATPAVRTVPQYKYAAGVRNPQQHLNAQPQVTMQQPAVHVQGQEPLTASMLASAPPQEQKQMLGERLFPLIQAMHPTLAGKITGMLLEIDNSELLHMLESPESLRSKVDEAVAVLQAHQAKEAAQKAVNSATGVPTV
eIF4H FP inh retest: also measured in eIF4H FP inh; calls as there; inhibition, %; compound at 20 µM; confirmation average;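 mean of two retest wells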
PABP FP inh retest: further read-out of PABP FP inh, marked with its call; inhibition, %; compound at 20 µM; confirmation repeats;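 mean of two retest wells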
MT1-MMP act inh RFP: also measured in MT1-MMP act inh; calls as there; RFP signal change, %; measured here: RFP expression control read;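 0 = vehicle wells; hits needed this value within 50% of zero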
An asterisk follows results filed as active; i = inactive; u = inconclusive; x = not tested or not shown; & = joins results of further samples. A portion of the library, so the mix of outcomes need not match the whole.

The first 2 compounds, ahead of the listing:
SMILES	eIF4H FP inh	MT1-MMP act inh	MT1-MMP act inh RFP	Env fusion inh	UUG fidelity	CSC inhib	Rce1 inh	PABP FP inh	others
COc1ccccc1NC(=O)c1c(O)c2ccccc2[nH]c1=O	-4	5	2	13	x	-1	i	-4
CO/N=C(\N)c1ccc([N+](=O)[O-])cc1	1	2	5	-17	x	x	i	-1

The listing, previewed entries included:
SMILES	eIF4H FP inh	MT1-MMP act inh	MT1-MMP act inh RFP	Env fusion inh	UUG fidelity	CSC inhib	Rce1 inh	PABP FP inh	others
COc1ccccc1NC(=O)c1c(O)c2ccccc2[nH]c1=O	-4	5	2	13	x	-1	i	-4
CO/N=C(\N)c1ccc([N+](=O)[O-])cc1	1	2	5	-17	x	x	i	-1
CC(C)C(c1nnnn1Cc1ccco1)N1CCN(c2cccc(Cl)c2)CC1 (centres undefined)	-13	-7	-6	44	-34	x	i	7
COc1ccccc1NC(C)=[N+](C)CCNS(=O)(=O)c1ccc(Cl)cc1	0	-4	3	1	-16	15	i	74*	eIF4H FP inh retest=5;PABP FP inh retest=105*
CNS(=O)(=O)c1ccc2c(c1)oc(=O)c1cc(S(=O)(=O)NC)ccc12	11	0	2	17	x	-8	i	-12
CC1=CC(C)(C)N2C(=O)C(=Nc3ccc(O)cc3)c3cccc1c32	53	19	11	-18	x	28	i	34	eIF4H FP inh retest=50;PABP FP inh retest=33
COc1cccc(C2=NOC(C(=O)Nc3cccnc3Cl)C2)c1 (centres undefined)	-7	-5	-4	20	x	-3	x	-6
O=C(Nc1cccc2ccccc12)NC(Cc1ccccc1)C(=O)O (centres undefined)	-5	0	0	4	-3	-11	i	6
CN(C)c1nc2sc3c(c2c(=O)n1C)CC(C)(C)OC3	7	9	8	x	-10	-1	i	2
CSc1ccc(C2=C/C(=C3/SC(=S)NC3=O)c3ccccc3O2)cc1	x	-3	5	1	-5	x	x	x
Cc1ccc(-n2c(C)cc(/C=N/NC(=O)CN(c3ccc(C)cc3C)S(C)(=O)=O)c2C)cc1	-10	3	-3	x	-11	7	i	7
CCOC(=O)N1CCc2c(sc(N)c2C#N)C1	1	x	x	-5	x	-11	i	5
CC1Cc2ccccc2N1c1ncnc(N)c1[N+](=O)[O-] (centres undefined)	24	-17	-14	65*	x	-9	x	12
CCN(CC(=O)N1CCc2ccccc2C1)S(=O)(=O)c1ccc2ccccc2c1	-4	2	2	14	18	3	i	8
Cc1cc(NC(=O)CSc2sc3c(O)cc(=O)[nH]c3c2C#N)ccc1Br	39	-4	2	17	x	9	x	30
CCCCn1c(CCNC(=O)c2cccs2)nc2ccccc21	-16	0	-3	x	x	-13	i	0
CCOc1ccccc1NC(=O)C1CC2CCCC(C1)C2=O (centres undefined)	-4	0	1	-27	-10	-6	i	4
CCC(C)Nc1nc(N)c([N+](=O)[O-])c(Nc2cc(OC)ccc2OC)n1 (centres undefined)	-4	0	-8	-4	-7	63	i	0
c1ccc(CCC2=NCCn3cccc32)cc1	62*	-5&-15	7&3	-1&7	-17	x	i	68*
O=C(Cn1c(=O)c2c(ncn2Cc2ccccc2)n(Cc2ccccc2)c1=O)NC1CC1	9	0	0	-20	x	-9	i	-3
COCC(=O)Nc1cccc(C(F)(F)F)c1	-12	8	4	25	-1	-6	x	-14
CC(=O)Nc1cc(C(=O)OCc2cccc([N+](=O)[O-])c2)ccc1C	3	1	1	-16	x	-6	i	18
COc1ccccc1C(=O)Nc1c2c(nn1-c1ccc(Cl)cc1)CS(=O)(=O)C2	-6	1	4	-2	-11	-7	i	-18
COCc1cccc(-c2csc(C(NC(C)=O)c3cccc(OC)c3)n2)c1 (centres undefined)	x	-4	-4	-2	-5	x	x	x
CC(=O)N1c2ccc(S(=O)(=O)N(C)Cc3ccco3)cc2CC1C (centres undefined)	3	-2	-2	6	-14	-10	i	5
Cc1ccc(S(=O)(=O)Nc2ccc(Nc3nccn4c(-c5ccccc5Oc5ccccc5)cnc34)cc2)cc1	x	-1	-1	8	-21	x	x	x
O=C(Nc1cccc(F)c1)NC1CCCCCCC1	7	-2	-3	-34	0	6	i	-12
COc1cc(NS(=O)(=O)c2ccc(NC(=O)/C(=C\c3ccccc3OC)NC(=O)c3ccccc3)cc2)nc(OC)n1	-5	5	-2	x	15	-8	i	0
COC(=O)CN1C(=S)N(c2ccc(F)cc2)C(=O)C1CC(=O)Nc1ccc(F)cc1 (centres undefined)	-4	8	6	5	-7	-3	i	4
O=C(COc1ccccc1[N+](=O)[O-])N(Cc1ccco1)C1CCS(=O)(=O)C1 (centres undefined)	8	0	6	-15	-24	-11	i	6
O=C(Cc1ccc(N2CCNC2=O)cc1)N1CCCC(Nc2cccc(F)c2)C1 (centres undefined)	5	-1	-10	-260	-7	62	i	14
CCOC(=O)C1CCN(S(=O)(=O)c2cccc(-c3cn4cc(C)ccc4n3)c2)CC1	5	1	-13	x	6	10	i	2
Cc1ccccc1C(=O)NC(=S)NCc1ccccc1	7	-2	-6	-3	-20	-7	i	-7
COc1cccc(Cn2c(N)c(C#N)c3nc4ccccc4nc32)c1OC	48	-50	-1	u	x	5	i	36
Cc1ccc(S(=O)(=O)N2CCN(C(=O)CCc3nc4ccccc4c(=O)[nH]3)CC2)c(C)c1	x	-6	-8	-21	-11	-4	i	x
CCCCN=C1N/C(=C\c2ccco2)C(=O)N1c1ccccc1	67	-7	10	x	1	3	i	30	eIF4H FP inh retest=23;PABP FP inh retest=47
NS(=O)(=O)OCC1CCCCC1	0	-1	2	12	-21	-32	i	8
CCN1CCN(C(=O)C(NS(=O)(=O)c2ccc3nc(C)sc3c2)C(C)C)CC1 (centres undefined)	2	7	5	-18	-10	-15	i	17
COc1ccc(S(=O)(=O)N2CC=C(C(=O)NC3CCCC3)CC2)cc1	-7	1	2	0	2	1	i	19
CCc1nc2c(s1)CCc1onc(-c3ccc(Cl)cc3)c1-2	x	-5	-3	23	20	23	i	x
CN(CCO)C(=O)c1ccc(-c2nn(C)c(=O)c3ccccc23)cc1	-8	5	4	6	x	x	i	-7
Cc1ccsc1C(=O)OCC(=O)N(Cc1ccccc1)C(C)C	x	0	-3	3	1	x	x	x
O=C(COC(=O)C(Cc1ccccc1)NC(=O)c1ccc(Cl)cc1)c1ccc(Cl)cc1 (centres undefined)	0	2	3	-14	x	-2	i	-11
CC(C)COc1ccc(C(=O)Nc2scc(-c3ccc(Cl)cc3Cl)c2C(N)=O)cc1	-4	3	-22	42	-10	44	i	-6
COc1cc(OC)cc(C(=O)N(Cc2cc3cc(C)ccc3[nH]c2=O)C(C)C)c1	-6	3	0	x	x	-10	i	-3
COc1ccc(CCNc2oc(COc3ccccc3)nc2C#N)cc1	-9	-3	-2	-34	-12	x	i	1
CCc1nnc(NC(=O)c2ccc(S(=O)(=O)N(CCOC)CCOC)cc2)o1	-3	-5	2	58	-22	-4	i	-1
O=C(CSc1nc2ccccc2[nH]1)Nc1nc(-c2ccc(Br)cc2)cs1	5	4	-1	-7	x	10	i	5
O=c1cc(-c2ccccc2)oc2ccc(O)cc12	-16	3	2	30	-22	-3	i	2
C=CCOn1c(-n2nc(C)cc2C)nc2ccccc2c1=O	-2	1	5	-1	-6	-6	i	-5
O=C(COC(=O)c1cccc(S(=O)(=O)NCc2ccccc2)c1)Nc1ccccc1OC(F)F	5	-2	6	i	4	-8	i	0
COc1ccc(CN=C(Nc2ccccc2)SC2CC(=O)N(C)C2=O)cc1 (centres undefined)	10	-1	2	-6	13	-7	i	0
Cc1[nH]c(=O)[nH]c1CN1CCCCC1	-5	x	x	x	x	x	i	4
COc1ccc(OC)c(CNC(=O)C2CCCN(c3ncnc4c3nc3n4CCCCC3)C2)c1 (centres undefined)	-1	-4	-5	9	-8	-15	i	0
O=C(Nc1nc2ccc([N+](=O)[O-])cc2s1)C1CCCO1 (centres undefined)	-4	-1	-2	-15	x	-20	i	-6
Cc1ccc(N=Nc2c(N)n(-c3ccccc3)[nH]c2=O)cc1	-6	0	1	x	-8	-8	i	-6
COc1ccccc1/C=C/CN1CCNC(=O)C1CC(=O)NCCc1cnccn1 (centres undefined)	2	2	3	0	-5	-6	i	-14
CC(/C=C/c1ccc2c(c1)OCO2)=N/NC(=O)c1ccncc1	-4	7	4	-25	-12	x	i	-10
COc1cc(C(=O)NCc2nnc(SCC(=O)Nc3nc4ccccc4s3)o2)cc(OC)c1OC	35	8	0	10	x	-11	i	0
N#C/C(=C\C=C\c1ccccc1)c1nc(-c2ccc(Cl)cc2)cs1	28	-9	1	-5	-11	45	i	9
Further structures follow:
SMILES	eIF4H FP inh	MT1-MMP act inh	MT1-MMP act inh RFP	Env fusion inh	UUG fidelity	CSC inhib	Rce1 inh	PABP FP inh	others
Cc1ccccc1N(C(=O)CS(=O)CC(=O)Nc1ccc(F)cc1)C(C)C(=O)NC(C)(C)C (centres undefined)	-6	-3	-6	-3	-20	-14	i	-1
O=C(O)c1ccc(-n2c(-c3cc(C4CC4)[nH]n3)n[nH]c2=S)cc1	1	0	2	10	x	-6	i	5
COc1ccc(NS(=O)(=O)c2ccc3nc(COc4ccc(Cl)c(C)c4)[nH]c3c2)cc1	-6	7	-6	-15	-9	11	i	-2
CCN1C(=O)C(C(=O)NC(C)c2ccccc2)C2CC1(C)Oc1ccccc12 (centres undefined)	-8	5	2	x	x	8	i	3
Cc1ccc(CNC(=O)[C@@H](NC(=O)C2CCN(C(=O)[C@@H](N)CC(C)C)CC2)C(C)C)cc1	-6	-2	2	x	-8	1	i	14
C/C(=N\Nc1ccc([N+](=O)[O-])cc1[N+](=O)[O-])c1cc2c(ccc3ccccc32)oc1=O	-2	x	x	x	x	-11	i	-2
CCOC(=O)c1sc2ncnc(NCc3ccco3)c2c1C	13	-7	1	x	x	-1	i	16

Part of the list above in order of length of the SMILES, largest number first.
SMILES	eIF4H FP inh	MT1-MMP act inh	MT1-MMP act inh RFP	Env fusion inh	UUG fidelity	CSC inhib	Rce1 inh	PABP FP inh	others
Cc1ccc(-n2c(C)cc(/C=N/NC(=O)CN(c3ccc(C)cc3C)S(C)(=O)=O)c2C)cc1	-10	3	-3	x	-11	7	i	7
CCOC(=O)C1CCN(S(=O)(=O)c2cccc(-c3cn4cc(C)ccc4n3)c2)CC1	5	1	-13	x	6	10	i	2
COc1ccc(S(=O)(=O)N2CC=C(C(=O)NC3CCCC3)CC2)cc1	-7	1	2	0	2	1	i	19
CN(C)c1nc2sc3c(c2c(=O)n1C)CC(C)(C)OC3	7	9	8	x	-10	-1	i	2
CCOC(=O)N1CCc2c(sc(N)c2C#N)C1	1	x	x	-5	x	-11	i	5
